Screening data: PubChem BioAssay, National Center for Advancing Translational Sciences (NCATS)
VDR inh: vitamin D3 receptor (human) inhibition; 0.93% of 400,000 active; Potency, µM, without a hit: max response, negative = inhibition, hits mostly inhibitors; AID 504847; P11473; VDR-SRC2-3 peptide fluorescence polarization, 2 h; active means well fitted inhibition curve with a large enough effect; inconclusive means small, poorly fitted or top-dose-only effect, or another doubt; inactive means no such curve, though single readings can be large or run the other way; further: series mostly up to about 120 µM
Target sequence (P11473 whole entry, looked up): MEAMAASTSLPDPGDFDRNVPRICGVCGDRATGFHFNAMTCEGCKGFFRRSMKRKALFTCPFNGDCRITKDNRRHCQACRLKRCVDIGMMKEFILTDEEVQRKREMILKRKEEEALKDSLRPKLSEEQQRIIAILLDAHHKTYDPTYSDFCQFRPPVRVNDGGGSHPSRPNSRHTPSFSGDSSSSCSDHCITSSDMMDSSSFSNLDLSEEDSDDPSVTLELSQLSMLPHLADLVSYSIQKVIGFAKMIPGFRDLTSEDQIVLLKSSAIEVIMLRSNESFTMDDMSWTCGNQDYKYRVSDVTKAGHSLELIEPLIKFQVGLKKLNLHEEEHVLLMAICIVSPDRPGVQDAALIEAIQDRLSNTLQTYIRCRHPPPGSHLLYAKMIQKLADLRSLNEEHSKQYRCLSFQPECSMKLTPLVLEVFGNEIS
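Reagent solutions, kept cold and dark, are dispensed first; compounds are then pinned in at 23 nl, plates briefly spun, and incubated 2 h at ambient temperature. Inhibition of VDR–SRC2-3 peptide binding is read by fluorescence polarization.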
Active calls of the source: *; ? = inconclusive; [ ] = remark or other dose. On the % scale 0 is the no-effect control and ±100 the full control effect; potency means the concentration at half of the fitted maximal effect.

VDR inh	Structure
-3%	CC(C)(C)C(=O)OCOP(=O)(OCOC(=O)C(C)(C)C)C(C)(Oc1ccc(O)cc1)P(=O)(OCOC(=O)C(C)(C)C)OCOC(=O)C(C)(C)C
-4%	Cc1cc(C)nc(SCc2cc(=O)c(OC(=O)c3ccco3)co2)n1
5%	O=C(CNCc1ccc(Cl)cc1)Nc1cccc(C(=O)O)c1
-14%	O=C(Nc1cccc(F)c1)N(Cc1ccc(Cl)cc1)CC(O)C(F)(F)F (stereo not given)
13%	Cc1ccc(Cn2nnc3c(=O)n(CC(=O)c4ccccc4)cnc32)cc1
1%	COC(=O)C(Cc1ccc(OC(=O)c2ccccc2C)cc1)N1Cc2ccccc2C1=O (stereo not given)
11%	CC(=O)Nc1cc(C(=O)NCc2ccc(F)cc2)ccc1S(=O)(=O)c1ccc(C)cc1
-5%	CCC(NC(=O)CCC(=O)N1CCN(S(=O)(=O)c2ccc(C)cc2)CC1)c1ccc(C)cc1 (stereo not given)
5%	COc1ccc(N2C3=[N+](CC2(C)O)c2ccccc2CC3)cc1 (stereo not given)
-27%	O=C1[C@H]2[C@@H](c3ccc(F)cc3)N3C(=O)N(c4ccccc4)C(=O)[C@@]3(Cc3ccccc3)[C@H]2C(=O)N1C1CCCCC1
13%	O=C1C(=O)N(C2CCN(S(=O)(=O)c3ccccc3)CC2)CCN1Cc1ccccc1
-25%	COc1cc(OC)cc(-c2nc3ccccc3c(=O)n2NC(=O)c2cccnc2Cl)c1
-8%	COC(=O)c1ccccc1NC(=O)Cn1cnc2sc(C)c(S(=O)(=O)N3CCC(C)CC3)c2c1=O
-5%	O=C(Nc1ccccc1)c1cccc(S(=O)(=O)Nc2ccccn2)c1
19%	Cc1nc2c(C(=O)Nc3ccc(N4CCCC(O)C4)cc3)snc2c(=O)[nH]1 (stereo not given)
13%	Cc1cc(CN(C)C(=O)CC2C(=O)NCCN2Cc2c(F)cccc2Cl)n[nH]1 (stereo not given)
-1%	COc1cccc(CC(=O)N2CCC(CCC(=O)Nc3cccc(OC)c3)CC2)c1
2%	C=C(C)C1CC=C(C)/C(=N/NC(=O)CCCNc2cccc(C)c2)C1 (stereo not given)
1%	CCOC(=O)CN(Cc1ccc(OC)c(OC)c1)S(=O)(=O)c1ccc(OC)cc1
-25%	C[N+]1=C2CCCCCN2C(O)(c2ccccc2)C1 (stereo not given)
1%	Cc1noc(C)c1-c1nc(CS(=O)(=O)c2ccc(Cl)cc2)no1
2%	Cc1ccc(C2(C)NC(=O)N(CC(=O)Nc3cccnc3Cl)C2=O)cc1 (stereo not given)
-14%	COc1ccc(C2CC(C(F)(F)F)n3nc(C(N)=O)c(Cl)c3N2)cc1OC (stereo not given)
10µM*	CC(C)(C)c1ccc(C(=O)CC(Sc2ccc(Cl)cc2)C(=O)O)cc1 (stereo not given)
9%	C[C@H](CO)N1C[C@H](C)[C@@H](CN(C)S(=O)(=O)c2ccccc2)Oc2c(NC(=O)Cc3ccccc3)cccc2C1=O
25%	Cc1sc2nc(CN3CCCC3)nc(N3CCN(S(=O)(=O)c4cccc(F)c4)CC3)c2c1C
-16%	O=C(COC(=O)[C@@H]1CCCN1S(=O)(=O)c1ccc(Cl)cc1)NC12CC3CC(CC(C3)C1)C2
-3%	CN(C)c1ccc(/C=N/NC(=O)c2ccc(Cl)cc2)cc1
13%	Cc1cc(C)nc(N/C(=N/S(=O)(=O)Cc2ccccc2)Nc2ccccc2)n1
3%	Cc1ccc2c(=O)cc(C(=O)Nc3sc4c(c3C(=O)NCc3ccco3)CCC4)oc2c1

VDR inh	Structure
8%	O=C(Cn1c(=O)c2cccn2c2ccc(F)cc21)NCc1cccc(Cl)c1
-1%	Cc1c(F)cccc1NS(=O)(=O)c1ccccc1C#N
-2%	CC(C)CC(NC(=O)C(Cc1ccc(OCc2ccccc2)cc1)NC(=O)OC(C)(C)C)C(N)=O (stereo not given)
0%	CCOC(=O)C(C(=O)Nc1cccc(C)n1)C1CCCCC1 (stereo not given)
28µM*	NC(=O)SCC(=O)Nc1ccc(Cl)cc1
8%	Cc1cc(S(=O)(=O)NCCc2ccncc2)cc(C)c1F
6%	O=C(Nc1nnc(S(=O)(=O)N2CCCc3ccccc32)s1)c1ccccc1Br
8%	COc1ccc(OCC(=O)N/N=C(\C)c2ccc(-n3ccnc3)cc2)cc1
-10%	CC[C@]12C(=O)N(C)C[C@H]([C@@H]3C(=O)N(Cc4ccccc4)C(=O)[C@@H]31)N2C(=O)c1ccc(C(F)(F)F)cc1
-1%	COc1ccc(C)cc1S(=O)(=O)Nc1cc2c3c(c1)CC(=O)N3CCC2
-19%	c1ccc(-c2ccc3ccccc3n2)cc1
18%	COc1ccccc1CN(C)C(=O)c1cccc(S(=O)(=O)N2CCCC2)c1
1%	COC(=O)CSc1nc(N)c(C#N)c(C(C)C)c1C#N
21%	COc1ccc(C)cc1S(=O)(=O)N1c2ccccc2CC1C (stereo not given)
-4%	COc1cccc(/C=C(\C#N)c2nc3ccc(C)cc3[nH]2)c1OCC(=O)O
-6%	Cc1cc(C)cc(-n2ccn(Cc3ccc(F)cc3)c(=O)c2=O)c1
3%	COc1ccc(CCNC(=O)CSc2nnc(-c3ccc(F)cc3)o2)cc1OC
10%	CC1(C)Cc2ccccc2-c2nnc(SCC(=O)Nc3nc4ccccc4s3)n21
0%	C=CCOCCn1[nH]c2ccccc2c1=O
-1%	Cc1ccc(NC(=O)c2cnn(-c3ccccc3)c2C)c(C)c1
-16%	Oc1c(Br)cc(Br)cc1C=Nc1ccc2c(c1)OCCO2
17%	Cc1c[n+]([O-])cc(C)c1[N+](=O)[O-]
-10%	NC(=O)c1ccc(NC(=O)COC(=O)CC(NC(=O)c2ccccc2Cl)c2ccccc2)cc1 (stereo not given)
-16%	O=C(CSc1nc2ccccc2n1Cc1ccccc1Cl)N/N=C/c1ccccc1C(=O)O
7%	COC(=O)c1ccc(NC(=O)CN2C(=O)CCc3cc(S(=O)(=O)N4CCCCC4)ccc32)cc1
-27%	O=C(CCC1CCCC1)N1CCN(C(=O)COc2ccccc2)CC1
-1%	N#Cc1ccc(OCC(=O)OCC(=O)c2ccccc2)cc1
8%	COc1ccc(CCN2C(=O)CC(N3CCOCC3)C2=O)cc1OC (stereo not given)
8%	CN(C)c1ccc(CNc2ncc(Br)cc2Br)cc1
10%	C=CC[C@@H](Cc1ccc(F)cc1)C(=O)OC[C@@H]1CCCN1C(=O)[C@H](CC=C)CC(=O)NCCO

The last two entries of the part above come first, to join the parts.
VDR inh	Structure
8%	CN(C)c1ccc(CNc2ncc(Br)cc2Br)cc1
10%	C=CC[C@@H](Cc1ccc(F)cc1)C(=O)OC[C@@H]1CCCN1C(=O)[C@H](CC=C)CC(=O)NCCO
1%	COC(=O)c1cc(NC(=O)COC(=O)C2CCC2)cc(C(=O)OC)c1
-16%	NS(=O)(=O)c1ccc(CNC(=O)CNC(=O)Cc2ccccc2)cc1
-1%	CCOC(=O)C(=O)N1CCN(c2ccccc2OC)CC1
-1%	COc1ccc(-c2ccc(C#N)c(SCC(=O)NC3CC3)n2)cc1OC
?	Cc1ccc(C(=O)N2CCC(C(=O)c3ccc(Cl)cc3)CC2)cc1
15%	CCN1CCn2c3c(c4cccc(C)c42)CCCC31 (stereo not given)
-3%	CC(=O)N(c1ccc(Cl)cc1)C1SC(=O)N(c2ccccc2)C1=O (stereo not given)
-4%	CCOC(=O)CSc1nc(-c2ccc(F)cc2)cc(C(F)(F)F)c1C#N
-2%	O=C(CC1(O)C(=O)Nc2ccccc21)c1ccccc1 (stereo not given)
-6%	O=C(O)CSc1nnc(-c2ccccc2O)n1Cc1ccccc1
5%	COc1ccc(-c2noc(CCC(=O)NC3CCN(Cc4ccccc4)CC3)n2)cc1
-10%	CSc1ccc(CN(C)C(=O)C(Cc2ccccc2)NC(=O)c2ccccc2)cc1 (stereo not given)
4%	N#Cc1c(Cl)cccc1N1CCCC1
-11%	Cc1ccc(S(=O)(=O)NC(C(=O)N2CCN(S(=O)(=O)c3cccc(F)c3)CC2)C(C)C)cc1 (stereo not given)
16%	O=C(c1cccs1)N1CCN(Cc2ccccn2)CC1
2%	O=C(Nc1ccccc1-c1ccccc1)c1cnccn1
2%	O=C(Nc1cccc2ccccc12)C1CCN(C(=O)NCc2ccccc2)CC1
1%	Cc1cc(Cl)ccc1OCC(=O)N(Cc1ccc(N(C)C)cc1)CC1CCCO1 (stereo not given)
-4%	CCn1c(=S)[nH]c2cc(Cl)ccc21
17%	CC(=O)N1c2ccccc2C(=O)C1N1CCN(c2cc(Cl)ccc2C)CC1 (stereo not given)
-29%	O=c1ccn(C2CCCO2)c(=O)[nH]1 (stereo not given)
-12%	O=C(c1ccco1)N1CCN=C1SCc1ccccc1F
-11%	Cc1ccc(C(=O)Nc2ccc(S(=O)(=O)N3CCCC3)cc2)o1
18%	CSc1nc2ccc(NS(=O)(=O)c3cccc(Cl)c3Cl)cc2s1
8%	C/C(=N\NC(=O)c1ccn[nH]1)c1cn(C)nc1C
?	CCC1CCCCN1S(=O)(=O)c1ccc(C(=O)Nc2sc3c(c2C(N)=O)CCC3)cc1 (stereo not given)
?	CCOC(=O)C1=C(O)/C(=C/c2ccc(OCC(=O)O)c(OCC)c2)SC1=Nc1ccc(C)cc1
21%	Cc1cccc(-n2ccnc2SCC(=O)Nc2nccs2)c1
-22%	O=C(c1nnc(-c2ccc(Cl)cc2)o1)C1CCCC1
90%[activator]	CCOC(=O)c1ccc(NC(=O)CSC2=NN3CCCC(=O)N=C3S2)cc1

VDR inh	Structure
-12%	Cc1onc(-c2ccccc2Cl)c1C(=O)N1CCCc2ccccc21
12%	CC1CN(C(=O)c2cc3c(=O)n4ccccc4nc3s2)CC(C)O1 (stereo not given)
7%	CCOc1cccc(C2c3[nH]c4ccccc4c3CCN2C(=O)CSCc2ccc(F)cc2)c1 (stereo not given)
-2%	CCCc1cc(=O)[nH]c(Nc2ccc(OCC)cc2)n1
-10%	O=C(NC1CCCC1)C(c1ccncc1)N(Cc1ccccc1F)C(=O)c1csnn1 (stereo not given)
8%	Cc1oc(C(C)(C)C)cc1C(=O)NCC(=O)NCC(=O)O
-15%	Cc1cccc(CNc2ccc(C(CC(N)=O)NC(=O)c3cccc(Br)c3)cc2[N+](=O)[O-])c1 (stereo not given)
-7%	Cc1cc(/C=N\NC(=O)CC(=O)NC2CCCCC2)c(C)n1-c1ccc(Cl)c(Cl)c1
-8%	CC(C)(C)c1nnc2sc(SCC(O)=C(C#N)c3nc4ccccc4[nH]3)nn2c1=O
8%	CN(C)C(=O)CN1CCN(c2nc3nonc3nc2N2CCCCC2)CC1
-5%	Cc1ccc(/C=N/NC(=O)c2cc3c(s2)CCCC3)o1
2%	COCCCNC(=O)N1CCN(c2nnc(C)c3c(C)n(-c4ccc(Cl)cc4)nc23)CC1
18%	C[C@H](NC(=O)[C@@H]1Cc2ccccc2CN1C(=O)OC(C)(C)C)C(=O)NCC1CCCO1 (stereo not given in full)
-17%	Cc1ccc(C(=O)O)cc1N=Cc1cc(Br)cc(Br)c1O
-5%	CCOC(=O)N1CCN(c2ncc3c(n2)CC(c2ccc(OC)c(OC)c2)CC3=O)CC1 (stereo not given)
11%	Cn1nc(C(=O)Nc2ccc(S(=O)(=O)Nc3ncccn3)cc2)ccc1=O
-7%	O=C(O)CCSc1nnc(SCC(=O)NCC(F)(F)F)s1
13%	Cc1cc(S(=O)(=O)Nc2cccnc2)c(Cl)cc1Cl
-18%	Cc1c(C(=O)CN2CCSCC2)c2ccccc2n1C
-9%	O=C(CSc1nc2ccccc2s1)NC(=O)NCc1ccco1
-1%	COC(=O)c1ccc2nc(NC(=O)CN3C(=O)CCC3=O)sc2c1
5%	COc1ccc(C(CNC(=O)Nc2cccc(C)c2)N2CCN(C)CC2)cc1 (stereo not given)
-1%	Cc1ncc(COP(=O)(O)O)c(CN)c1O
-4%	O=C(COc1cccc2ccccc12)N1CCN(c2ccccn2)CC1
17%	CCOc1ccc(C(=O)NC(C)(C)CC)cc1
4%	COc1ccc(NS(=O)(=O)c2ccc(C)c(C(=O)N3CCCCCCC3)c2)cc1
-9%	O=C(COC(=O)c1ccccn1)NCc1cccc(Cl)c1
-9%	C/C(=N/NS(=O)(=O)c1ccc(Cl)cc1)c1cccc(O)c1
-1%	COc1ccc(OC)c(S(=O)(=O)N/N=C(/C)c2c[nH]c3ccccc23)c1
11%	COc1ccccc1CCC(=O)N1CCC(n2nccc2NC(=O)CC(C)C)CC1

Compounds shown so far containing an aryl thioether with sulfur outside any ring, in the order listed:
VDR inh	Structure
-4%	Cc1cc(C)nc(SCc2cc(=O)c(OC(=O)c3ccco3)co2)n1
10µM*	CC(C)(C)c1ccc(C(=O)CC(Sc2ccc(Cl)cc2)C(=O)O)cc1 (stereo not given)
1%	COC(=O)CSc1nc(N)c(C#N)c(C(C)C)c1C#N
3%	COc1ccc(CCNC(=O)CSc2nnc(-c3ccc(F)cc3)o2)cc1OC
10%	CC1(C)Cc2ccccc2-c2nnc(SCC(=O)Nc3nc4ccccc4s3)n21
-16%	O=C(CSc1nc2ccccc2n1Cc1ccccc1Cl)N/N=C/c1ccccc1C(=O)O
-1%	COc1ccc(-c2ccc(C#N)c(SCC(=O)NC3CC3)n2)cc1OC
-4%	CCOC(=O)CSc1nc(-c2ccc(F)cc2)cc(C(F)(F)F)c1C#N
-6%	O=C(O)CSc1nnc(-c2ccccc2O)n1Cc1ccccc1
-10%	CSc1ccc(CN(C)C(=O)C(Cc2ccccc2)NC(=O)c2ccccc2)cc1 (stereo not given)
18%	CSc1nc2ccc(NS(=O)(=O)c3cccc(Cl)c3Cl)cc2s1
21%	Cc1cccc(-n2ccnc2SCC(=O)Nc2nccs2)c1
-8%	CC(C)(C)c1nnc2sc(SCC(O)=C(C#N)c3nc4ccccc4[nH]3)nn2c1=O
-7%	O=C(O)CCSc1nnc(SCC(=O)NCC(F)(F)F)s1
-9%	O=C(CSc1nc2ccccc2s1)NC(=O)NCc1ccco1

An excerpt, so the mix of outcomes need not match the whole.
